Screening data: PubChem BioAssay, several laboratories
Vif A3G – inhibitors of Vif binding to APOBEC3G peptide, primary screen, biochemical, TR-FRET, GST-Vif 1-94, biotin-A3G peptide, dose response retest (AID 1117319) | hit rate 0.57% among 260,000 | TR-FRET GST-Vif / biotin-A3G peptide binding; higher % means a stronger effect; test concentration not given here; strong numbers were not always called active | Virion infectivity factor (Human immunodeficiency virus type 1 group M subtype B (isolate … | inhibition, %, or IC50 in µM where a hit was titrated;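 active = above the screen mean plus three standard deviations and confirmed in dose response; inconclusive = results disagree or hit not tested in dose response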;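 note: Vif residues 1-94 fused to GST binding biotinylated APOBEC3G peptide 110-148; 0% = full assay without inhibitor and 100% = GST in place of GST-Vif; retest series ran down from 100 µM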
LANA-H2A inh – blockers of LANA interaction with H2A/H2B – biochemical, FP readout, HTS, primary screen | Protein LANA1 (Human herpesvirus 8 type P (isolate GK18)), Q9QR71 | cell-free LANA-H2A/H2B peptide, fluorescence polarization | inhibition, % (no concentration beside the values) | hit rate 0.6% among 320,000 | AID 2629, 2010; in the data active = inhibition mostly above about 10%, no sharp cut-off; inactive = mostly below about 6.7%;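 note: stock transfer was 7.5 nL into about 10 µL; 0% = median of vehicle wells and 100% = median of positive control wells; one replicate is shown; the record names a cut of 25% in any replicate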
Calb FLC – C. albicans growth inhibition with fluconazole, primary screen, CaCi-2 strain, Alamar Blue fluorescence; hit rate 0.57% among 300,000; C. albicans CaCi-2 (fluconazole-resistant clinical isolate) + fluconazole, 48 h; growth inhibition, % (test concentration not listed); AID 1979, 2009;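 active = most replicates above 75%; inconclusive = exactly half above 75%; inactive = most below 75%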;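 note: all wells also contain fluconazole at 8 µg/ml as a sub-toxic cotreatment; 0% = median of DMSO wells and 100% = median of geldanamycin control wells; wells of about 8 µL received 7.5 nL stock; the first replicate is given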
B2AR ag – beta2AR agonists driving receptor internalization, primary screen, cell-based, FAP fluorogen, flow cytometry; Am2.2-beta2AR cells; reference of the scale not given here; AID 504454, 2011; hit rate 0.43% among 340,000; response, % (test concentration not listed);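 active = response above a set limit, near 3 SD of response in nonfluorescent compounds, cut at about 42% in these data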;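 note: stock transfer was 100 nL into about 11 µL; a reference agonist was the positive control; negative values mostly stem from fluorescent compounds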
RanGTP-Impb inh – inhibitors of RanGTP-importin-beta interaction, primary screen, biochemical, FRET, CFP-Ran, YFP-importin-beta, homogeneous | cell-free CFP-Ran/YFP-importin-beta FRET ratio | hit rate 1.1% among 300,000 | Ran GTPase (GTP-bound) - importin-beta complex | inhibition, % (test concentration not listed);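 active = most replicates above 15%; inconclusive = exactly half above 15%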;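 note: 0% = DMSO wells and 100% = Ran loaded with GDP instead of GTP; wells of about 40 µL received 100 nL stock; the first replicate is given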
ALR H2O2 inh – inhibitors of human ALR sulfhydryl oxidase, primary screen, biochemical, H2O2 detection, HRP-luminol luminescence, single point. FAD-linked sulfhydryl oxidase ALR (Homo sapiens), P55789. purified ALR, DTT oxidation. inhibition, % (test concentration not listed). hit rate 3.8% among 290,000. AID 485317, 2010;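 active = mean and each replicate at 75% or more; inconclusive = only one of the two met; inactive = neither met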;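 note: stock transfer was 7.5 nL into about 7.5 µL; 0% = neutral wells and 100% = wells with inactivated enzyme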
Target sequence (P55789 whole entry, looked up): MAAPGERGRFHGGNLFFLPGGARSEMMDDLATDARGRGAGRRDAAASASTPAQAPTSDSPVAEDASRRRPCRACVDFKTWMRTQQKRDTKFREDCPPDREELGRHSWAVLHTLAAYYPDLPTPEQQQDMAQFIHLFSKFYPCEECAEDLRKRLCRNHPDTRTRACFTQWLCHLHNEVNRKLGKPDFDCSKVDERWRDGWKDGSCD
HNF4A DNA FP – change in binding of human HNF4A to DNA, primary screen, biochemical, fluorescence polarization, FITC-DNA; Hepatocyte nuclear factor 4-alpha (Homo sapiens), P41235; 1 h; activity change, % at 10 µM; hit rate 0.3% among 360,000; in the data active = activity change above about 30%, passing the limit was not always enough;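 note: controls were the assay level and a saturating level of protein; the project sought stronger binding though the title names inhibitors; some compounds called inactive have numbers as strong as hits; positive values seem to mean higher polarization but the record does not say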
Target sequence (P41235 whole entry, looked up): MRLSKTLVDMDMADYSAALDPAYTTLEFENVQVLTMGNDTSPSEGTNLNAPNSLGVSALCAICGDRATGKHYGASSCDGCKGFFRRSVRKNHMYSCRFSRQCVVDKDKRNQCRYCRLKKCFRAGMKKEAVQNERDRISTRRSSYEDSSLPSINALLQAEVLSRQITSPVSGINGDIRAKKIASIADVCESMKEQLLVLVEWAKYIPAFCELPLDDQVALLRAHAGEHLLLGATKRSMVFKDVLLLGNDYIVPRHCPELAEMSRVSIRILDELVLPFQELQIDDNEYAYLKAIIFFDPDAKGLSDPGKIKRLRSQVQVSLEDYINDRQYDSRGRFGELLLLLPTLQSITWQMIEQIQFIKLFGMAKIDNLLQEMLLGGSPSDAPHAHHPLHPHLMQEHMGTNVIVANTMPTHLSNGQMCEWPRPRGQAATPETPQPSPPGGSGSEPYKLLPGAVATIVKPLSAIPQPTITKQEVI
* = called active by the depositor; u = inconclusive; x = not tested or not shown.

SMILES | Vif A3G | LANA-H2A inh | Calb FLC | B2AR ag | RanGTP-Impb inh | ALR H2O2 inh | HNF4A DNA FP
COC1CCN(Cc2c(C(=O)N3C[C@@H](C)O[C@@H](C)C3)nc3ccc(Cl)cn23)CC1 | x | 0.4 | 10 | -14 | -1.7 | 4 | 6.5
O=C(NC(=S)Nc1cccc(O)c1)c1ccco1 | 28% | 1.9 | x | -1 | 6.4 | -46 | 3.3
CC1CC(C)CN(C(=O)CSCC(=O)Nc2nc(-c3cccs3)cs2)C1 (centres undefined) | -1% | 2.5 | -3 | -3 | 7.8 | 99* | 1.4
COc1ccc(CCn2c(N)c(C#N)c3nc4ccccc4nc32)cc1OC | 1% | 1.2 | -1 | 4 | 7.3 | -17 | 0.0
Cc1ccc(C(=O)/C=C/Nc2ccccn2)cc1 | 1% | 15 | -13 | -14 | 7.4 | 0 | 1.8
CC(OC(=O)C1=Cc2ccccc2OC1)C(=O)NC(C)(C)C (centres undefined) | x | -5.7 | -30 | -3 | u | 24 | -0.1
Cc1[nH]nc(Nc2ccc(Br)cc2)c1[N+](=O)[O-] | -4% | -2.7 | -3 | -1 | -3.3 | -3 | -1.2
N#CCSc1nc2ccc(N3CCOCC3)cc2c(=O)n1CCc1ccccc1 | u | -0.6 | 29 | 3 | 5.4 | -5 | -2.1
O=C(C1=C(O)C(=O)N(c2nccs2)C1c1ccccc1)c1cc2ccccc2o1 (centres undefined) | 30% | -2.5 | 42 | 1 | -2.6 | 96* | -131
CCC(=O)NC(=S)Nc1ccc(S(=O)(=O)NC(C)=O)cc1 | -4% | -5.0 | -11 | -4 | 1.3 | -15 | 0.8
CCCOc1ccc(N2CC(C(=O)Nc3ccc4c(c3)OCO4)CC2=O)cc1 (centres undefined) | 9% | -2.7 | -10 | 0 | 4.6 | 2 | -1.0
CC1CCCCC1NC(=O)c1ccc(CSc2nc3ccncc3[nH]2)cc1 (centres undefined) | -5% | 0.2 | -3 | -3 | 6.7 | -2 | 5.6
Cc1ccccc1-c1cccc([C@@H]2C[C@H]3[C@H](CON3C)CN2Cc2cc(Cl)cc(Cl)c2)c1 | -4% | x | x | 7 | x | x | 2.6
CCCCN(C(=O)CCC(=O)Nc1cc(C)on1)C(C(=O)NC(C)(C)C)c1ccccc1Cl (centres undefined) | x | -3.6 | 3 | 9 | 3.0 | -5 | -0.3
CCOC(=O)Cn1c(=O)n(Cc2ccco2)c(=O)c2ccc(C(=O)NC3CCCC3)cc21 | 4% | -6.1 | 3 | -1 | 1.2 | -5 | -0.9
Cc1nc(C(=O)NCC(=O)c2ccccc2)c(C(F)(F)F)o1 | 4% | 2.0 | 3 | -6 | 4.5 | -1 | 3.7
NC(=O)C1CCCN(CC(=O)Nc2ccccc2C(=O)NC2CC2)C1 (centres undefined) | 80% | -3.1 | x | -6 | x | 0 | 3.8
O=C(COc1ccccc1)NCCSCc1ccc(Cl)cc1 | x | -4.6 | -1 | 4 | u | -3 | 2.2
COc1cccc(C(=O)NCCS(=O)(=O)NCCCc2ccccc2)c1 | x | -1.0 | 10 | 7 | u | -12 | -3.5
O=C(COc1coc(CN2CCN(c3ccccc3)CC2)cc1=O)NC1CCCC1 | x | -4.9 | -6 | -1 | -0.5 | 25 | -2.8
O=C(NCc1cccnc1)c1ccccc1NS(=O)(=O)c1ccc(F)cc1F | -2% | x | 21 | 5 | -3.4 | x | -2.3
O=C(NCCCN1CCCC1=O)c1sc2ccccc2c1Cl | x | 1.6 | x | -11 | x | -7 | 2.8
O=C(O)c1cccc(CSc2nc(-c3ccc(Cl)cc3)cc(C(F)(F)F)n2)c1 | -1% | -0.1 | -4 | 7 | -0.8 | u | -4.9
Cc1cccn2c(=O)c3cc(C(=O)NCCN4CCOCC4)c(=N)n(Cc4ccc(F)cc4)c3nc12 | x | 12 | 29 | -1 | 162* | -25 | 2.3
O=C(CN1CCOCC1)Nc1c2c(nc3ccccc13)N(Cc1ccccc1)CC2 | -2% | -4.9 | 3 | -21 | 1.2 | 6 | -4.2
O=C(CNC(=O)c1sc2ccccc2c1Cl)NCc1ccccc1 | x | -4.3 | -2 | -14 | -3.9 | 0 | 4.1
N#C/C(=C\c1ccccc1)C(=O)Nc1ccccn1 | -3% | -4.3 | 3 | -1 | 49* | 29 | -1.5
CC(C)OC(=O)CSc1nc2cc3c(cc2cc1C#N)OCO3 | -76% | 3.6 | 1 | 2 | -1.6 | x | 0.0
CCCCOC(=O)CSC1=C(C#N)C(c2ccccc2OC)C(C#N)C(=O)N1 (centres undefined) | 12% | -3.0 | 2 | 1 | 15 | 43 | -0.3
O=c1[nH]ncc2c3ccccc3n(Cc3ccccc3F)c12 | 2% | -2.3 | -4 | 1 | 0.8 | -4 | -0.6
CCO[C@H]1OC(C(=O)NCc2ccccc2)=C[C@@H](c2ccc3c(c2)OCO3)[C@@H]1CCCO | x | -0.6 | 16 | 1 | 5.1 | -10 | -0.1
O=C(Nc1cccc(-n2cnnn2)c1)C1CCCN(Cc2cccc(C(F)(F)F)c2)C1 (centres undefined) | x | 13* | -17 | -2 | 2.4 | -9 | 1.9
COc1ccc(CNC(=O)COC(=O)C2=COCCO2)cc1 | 7% | 3.1 | -3 | -5 | 2.1 | -3 | 2.1
Cc1cccc(NC(=O)Cn2c(=O)oc3ccccc32)n1 | x | -5.1 | 0 | -3 | 2.2 | -2 | 3.1
O=C(c1ccc(S(=O)(=O)N2CCCCC2)cc1)N1CCN=C1SCc1cccnc1 | -4% | x | x | -4 | x | x | 2.3
COc1ccc(CNC(=O)c2ccc3c(=O)n4c(nc3c2)CCCCC4)cc1OC | -9% | x | x | 13 | x | x | 1.1
CNc1nnc(SCC(=O)c2cc(C)n(C3CC3)c2C)s1 | x | 1.3 | x | 6 | x | 92* | 3.2
Cc1c(NC(=O)C(C)c2ccc(CC(C)C)cc2)c(=O)n(-c2ccccc2)n1C (centres undefined) | 21% | 0.2 | -13 | -15 | -4.5 | 1 | -1.8
CCCn1c(COc2ccc(C(=O)O)cc2)nc2ccccc21 | x | 4.6 | 7 | 3 | -0.6 | x | -2.1
C=CCOc1cccc(C2/C(=C(/O)c3ccccc3)C(=O)C(=O)N2CCN2CCOCC2)c1 (centres undefined) | 5% | 3.1 | -9 | 3 | -0.9 | 3 | -1.6
CCOC(=O)C1CCN(CCC(=O)Nc2ccc(C)cc2)CC1 | 3% | 1.0 | -8 | 2 | 1.2 | -1 | -6.9
NC(=O)CCCc1nc(-c2ccccc2Cl)no1 | 0% | 0.5 | -1 | 1 | 0.1 | -7 | 1.7
O=[N+]([O-])c1ncn(C23CC4CC(CC(C4)C2)C3)n1 | 1% | 5.0 | -1 | -4 | 4.1 | -24 | -1.6
O=C(Nc1ccccc1)N(Cc1ccc2c(c1)OCO2)Cc1nc2ccccc2c(=O)[nH]1 | -2% | 0.7 | 11 | 2 | 5.2 | 4 | 0.6
O=C(NCc1ccncc1)Nc1cccc(Cl)c1 | 2% | 0.4 | -6 | 0 | 3.2 | 2 | -1.7
Cc1ccccc1-n1c(-c2ccc3ccccc3n2)n[nH]c1=S | x | 0.7 | -1 | 4 | 2.2 | 18 | 3.1
Cc1cc(C)c2c(N)c(S(=O)(=O)c3ccccc3)sc2n1 | 3% | -18 | -5 | 1 | 4.2 | 1 | 0.0
Cc1cccc(NC2=NCC(=O)N2Cc2cccs2)c1 | -7% | -1.2 | 38 | -1 | 0.8 | -8 | -5.5
COc1ccc(NC(=O)CSc2nc3c(c(=O)n2-c2ccccc2)SCC3)c(OC)c1 | -8% | -0.2 | 5 | -1 | 0.5 | -7 | 2.7
Cc1ccc(NC(=O)CSc2n[nH]c(C)c2[N+](=O)[O-])cc1 | x | 1.0 | -1 | -5 | 3.3 | -7 | -3.3
O=C(N/N=C/c1ccccc1C(=O)O)c1cccc(S(=O)(=O)Nc2cc(Cl)ccc2Cl)c1 | 19% | -0.5 | -3 | -1 | -1.4 | 2 | -0.9
Cc1ccc(/C(O)=C2/C(=O)C(=O)OC2c2ccc(Cl)cc2)cc1 (centres undefined) | -8% | 3.3 | -10 | 0 | -1.5 | 92* | -1.0
CSc1ccccc1-c1nnc(-c2ccc(Cl)cc2Cl)o1 | -2% | -0.9 | 4 | -8 | -5.2 | 30 | -2.4
CN(c1ccccc1)S(=O)(=O)c1cccc(C(=O)NCc2ccccc2)c1 | 0% | 2.3 | x | 8 | x | -5 | 1.3
O=C(Nc1ccc(OC(=O)c2cccs2)cc1)c1ccco1 | 2% | 1.4 | -4 | 0 | -2.2 | 1 | -2.8
COc1cc(/C=N\Nc2ccc([N+](=O)[O-])cc2)ccc1OCC(=O)Nc1ccc(C)c(C)c1 | 2% | x | -4 | -47 | -23 | x | 26
Cc1ccc2nc(Cn3cc(C(F)(F)F)ccc3=O)cc(=O)n2c1 | 9% | -0.6 | 4 | 4 | -2.8 | -7 | -3.6
Cc1cccc(NC(=O)c2ccc(OCC(=O)NCc3ccccc3)cc2)c1C | 6% | -3.3 | 30 | -2 | 1.0 | 9 | -8.3
CN1C(=O)/C(=C/c2ccccc2OCc2ccc(C(=O)O)cc2)NC1=S | -4% | 2.0 | -9 | 10 | -3.2 | 38 | 4.6
COC(=O)Nc1ccc(S(=O)(=O)N2CCC(C(=O)NC3CCCCC3)CC2)cc1 | 9% | 2.7 | 8 | 12 | -1.0 | -7 | -1.9

Part of the list above, as comma-separated lines.
molecule,Vif A3G,LANA-H2A inh,Calb FLC,B2AR ag,RanGTP-Impb inh,ALR H2O2 inh,HNF4A DNA FP
Cc1ccc(/C(O)=C2/C(=O)C(=O)OC2c2ccc(Cl)cc2)cc1 (centres undefined),-8%,3.3,-10,0,-1.5,92*,-1.0
CSc1ccccc1-c1nnc(-c2ccc(Cl)cc2Cl)o1,-2%,-0.9,4,-8,-5.2,30,-2.4
CN(c1ccccc1)S(=O)(=O)c1cccc(C(=O)NCc2ccccc2)c1,0%,2.3,x,8,x,-5,1.3
O=C(Nc1ccc(OC(=O)c2cccs2)cc1)c1ccco1,2%,1.4,-4,0,-2.2,1,-2.8
COc1cc(/C=N\Nc2ccc([N+](=O)[O-])cc2)ccc1OCC(=O)Nc1ccc(C)c(C)c1,2%,x,-4,-47,-23,x,26
Cc1ccc2nc(Cn3cc(C(F)(F)F)ccc3=O)cc(=O)n2c1,9%,-0.6,4,4,-2.8,-7,-3.6

Next entries
SMILES | Vif A3G | LANA-H2A inh | Calb FLC | B2AR ag | RanGTP-Impb inh | ALR H2O2 inh | HNF4A DNA FP
COC(=O)c1ccc(NC(=O)c2ccc(OC(C)=O)c(OC)c2)cc1 | x | -1.8 | -9 | 3 | 3.0 | 39 | -1.8
O=c1c2cc(Cl)ccc2nc(-c2ccc(Cl)c(Cl)c2)n1O | 24% | -3.4 | 101* | 11 | -4.2 | x | -5.6
CCOC(=O)/C(C#N)=C\c1cc(OC)c(OC)cc1[N+](=O)[O-] | x | -0.5 | -4 | 2 | -4.7 | 13 | -5.0
CNS(=O)(=O)c1ccc(NC(=S)Nc2ccc3c(c2)OCO3)cc1 | -2% | 2.0 | 0 | -1 | 7.6 | 46 | -1.5
